Vif TR-FRET – HIV-1 Vif–A3G interaction blockers – biochemical, TR-FRET, GST-Vif 1-94, biotin-A3G peptide, dose response retest, primary screen (AID 1117319). TR-FRET GST-Vif / biotin-A3G peptide binding; higher % means a stronger effect; test concentration not given here; strong numbers were not always called active. inhibition, %, or IC50 in µM where a hit was titrated. actives 0.57% (n = 260,000);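 active = above the screen mean plus three standard deviations and confirmed in dose response; inconclusive = results disagree or hit not tested in dose response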;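 also: Vif residues 1-94 fused to GST binding biotinylated APOBEC3G peptide 110-148; 0% = full assay without inhibitor and 100% = GST in place of GST-Vif; retest series ran down from 100 µM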
HNF4A DNA FP – change in binding of human HNF4 alpha to DNA. P41235. HNF4a-FITC DNA binding, fluorescence polarization, 1 h. activity change, % at 10 µM. actives 0.3% (n = 360,000). AID 1224865; in the data active = activity change above about 30%, passing the limit was not always enough;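 also: controls were the assay level and a saturating level of protein; the project sought stronger binding though the title names inhibitors; some compounds called inactive have numbers as strong as hits; positive values seem to mean higher polarization but the record does not say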
Target sequence (P41235 whole entry, looked up): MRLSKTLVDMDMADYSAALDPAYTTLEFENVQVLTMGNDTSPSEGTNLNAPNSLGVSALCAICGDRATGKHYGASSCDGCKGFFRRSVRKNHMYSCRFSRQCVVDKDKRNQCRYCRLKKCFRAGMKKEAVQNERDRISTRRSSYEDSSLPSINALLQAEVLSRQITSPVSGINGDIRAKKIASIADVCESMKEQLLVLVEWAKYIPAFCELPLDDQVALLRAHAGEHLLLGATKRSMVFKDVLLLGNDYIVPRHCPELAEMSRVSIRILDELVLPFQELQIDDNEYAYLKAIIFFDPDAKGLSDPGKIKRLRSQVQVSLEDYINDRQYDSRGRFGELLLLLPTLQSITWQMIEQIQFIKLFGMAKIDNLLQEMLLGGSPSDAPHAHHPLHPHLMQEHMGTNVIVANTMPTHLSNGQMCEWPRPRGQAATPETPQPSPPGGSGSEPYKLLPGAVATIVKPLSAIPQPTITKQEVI
MLL AF4-AF9 inh – MLL-AF4/AF9 protein interaction inhibition | P42568 | AlphaScreen, biotin-AF4 peptide binding to FLAG-AF9 | inhibition, % at 10 µM | actives 0.47% (n = 350,000) | AID 651704;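 active = every replicate reaching a set inhibition limit, whatever the replicate mean, cut at about 25% in these data; inconclusive = mean inhibition reaches that limit but some replicates miss it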;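 also: 0% = plate neutral control median and 100% = total signal loss; the record names both 10 and 1 µM as test concentration; the first replicate is given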
Target sequence (P42568 whole entry, looked up): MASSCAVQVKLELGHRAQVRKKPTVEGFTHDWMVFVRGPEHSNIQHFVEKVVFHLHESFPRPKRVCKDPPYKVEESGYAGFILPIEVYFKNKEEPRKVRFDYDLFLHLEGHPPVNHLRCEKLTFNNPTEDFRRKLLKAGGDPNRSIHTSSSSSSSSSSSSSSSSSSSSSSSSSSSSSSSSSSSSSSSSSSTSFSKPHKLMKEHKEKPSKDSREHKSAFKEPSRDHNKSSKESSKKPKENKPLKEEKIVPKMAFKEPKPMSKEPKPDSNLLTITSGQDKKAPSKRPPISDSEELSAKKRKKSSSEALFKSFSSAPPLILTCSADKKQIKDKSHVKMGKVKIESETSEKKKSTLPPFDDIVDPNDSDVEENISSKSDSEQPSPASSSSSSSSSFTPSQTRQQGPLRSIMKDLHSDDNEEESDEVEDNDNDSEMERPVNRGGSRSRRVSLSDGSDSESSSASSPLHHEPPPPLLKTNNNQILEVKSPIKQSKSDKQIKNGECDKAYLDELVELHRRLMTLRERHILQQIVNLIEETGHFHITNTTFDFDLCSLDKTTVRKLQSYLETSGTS
Ecoli rRNA inh – inhibits bacterial ribosomal RNA function over humanized ribosomes; E. coli WT GFP vs humanized-ribosome RFP mutants, fluorescence, 24 h; hits give low values; DMSO median 0, no signal -100; GFP signal change (wild-type ribosome), % (no concentration beside the values); actives 1.6% (n = 350,000);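 active = significant combined selectivity score with lowered wild-type GFP, culture density cut under 30%, mutant RFP and density less affected; inactive = any of these conditions unmet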; also: one replicate is shown; some compounds called inactive have numbers as strong as hits
ALR inh – human ALR oxidase inhibition via reduced H2O2; P55789; inhibition, % (test concentration not listed); AID 485317; actives 3.8% (n = 290,000); purified ALR, DTT oxidation, H2O2 HRP-luminol luminescence;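 active = mean and each replicate at 75% or more; inconclusive = only one of the two met; inactive = neither met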;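 also: stock transfer was 7.5 nL into about 7.5 µL; 0% = neutral wells and 100% = wells with inactivated enzyme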
FGF22 binding – shifts melting point of recombinant human FGF22; Q9HCT0; AID 651658; recombinant FGF22 thermal shift, SYPRO orange fluorescence; percent of sucrose octasulfate shift, DMSO zero; calls only at 9.99 µM; actives 1.5% (n = 340,000);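 active = melting point raised past a set limit in the mean and every replicate; inconclusive = no clear call; three in four hits are not shown here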
Ecoli growth – E. coli growth inhibition; Escherichia coli growth, OD600, 23 h; hits give low values; OD600 absorbance (test concentration not listed); actives 0.21% (n = 330,000); AID 1053175;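 active = OD600 absorbance below the run mean of sample wells minus 3.6 SD, in any replicate, cut at about 0.56 in these data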;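 also: stock transfer was 300 nL into about 60 µL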
Ecoli rRNA inh OD600 – recorded beside Ecoli rRNA inh, whose call it bears; OD600 change, %; measured here: OD600 growth;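 optical density of the mix in the first replicate; 0 = DMSO median and -100 = no signal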
Ecoli rRNA inh RFP – recorded beside Ecoli rRNA inh, whose call it bears; RFP signal change, %; measured here: RFP humanized mutant strains;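 first replicate; 0 = DMSO median and -100 = no signal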
* hit, by the source's call. Only part of the results is shown; count on the stated rates, not on these rows.

COc1ccc(NC(=O)N(C)C[C@H]2Oc3ccc(NS(=O)(=O)c4cn(C)cn4)cc3CC(=O)N([C@H](C)CO)C[C@@H]2C)cc1 was read as MLL AF4-AF9 inh -2.2, Ecoli rRNA inh 4.1, FGF22 binding inactive, Ecoli rRNA inh OD600 5.2 and Ecoli rRNA inh RFP -1.5.
`CN1/C(=C\C(=O)COC(=O)c2ccc([N+](=O)[O-])o2)C(C)(C)c2ccccc21` gave Vif TR-FRET -4.5%, HNF4A DNA FP 0.1, MLL AF4-AF9 inh -1.8, Ecoli rRNA inh 5.3, ALR inh -214.9, FGF22 binding inactive, Ecoli growth 0.709, Ecoli rRNA inh OD600 7.0 and Ecoli rRNA inh RFP 11.3.
CCN(CC)S(=O)(=O)c1ccc(N2CCCC2)c(NC(=O)C2CCCCC2)c1 was read as HNF4A DNA FP 0.8, MLL AF4-AF9 inh 1.0, Ecoli rRNA inh 6.7, ALR inh -4.0, FGF22 binding inactive, Ecoli growth 0.713, Ecoli rRNA inh OD600 -1.3 and Ecoli rRNA inh RFP -3.9.
COc1ccc(NC(=O)CSc2nnc(NC(=O)C3CC3)s2)cc1OC was read as HNF4A DNA FP 1.8, MLL AF4-AF9 inh -2.0, Ecoli rRNA inh 7.0, ALR inh -4.2, FGF22 binding inactive, Ecoli growth 0.698, Ecoli rRNA inh OD600 2.6 and Ecoli rRNA inh RFP -2.6.
COc1ccc(C(=O)NC(C)c2nnc(SCC(=O)NC3CCCC3)n2C)cc1 (configuration not stated) was read as HNF4A DNA FP -0.4, MLL AF4-AF9 inh 1.1, Ecoli rRNA inh 2.7, ALR inh -1.8, FGF22 binding inactive, Ecoli growth 0.645, Ecoli rRNA inh OD600 12.6 and Ecoli rRNA inh RFP -1.9.
Screening Cc1ccc(NC(=O)c2nc(S(=O)(=O)Cc3ccccc3)ncc2Cl)cc1 returned HNF4A DNA FP -4.6, MLL AF4-AF9 inh 1.7, Ecoli rRNA inh -4.9, ALR inh 1.2, FGF22 binding inactive, Ecoli rRNA inh OD600 -14.5 and Ecoli rRNA inh RFP -5.5.
CSCCC(NS(=O)(=O)c1ccc2[nH]c(=O)c(=O)[nH]c2c1)C(=O)O (configuration not stated) was read as Vif TR-FRET -7.6%, HNF4A DNA FP 4.5, MLL AF4-AF9 inh 0.9, Ecoli rRNA inh -11.6, ALR inh -38.6, FGF22 binding inactive, Ecoli growth 0.694, Ecoli rRNA inh OD600 5.2 and Ecoli rRNA inh RFP -1.5.
For O=c1cc(-c2ccccc2)[nH]n1-c1nc2ccccc2s1 the results were Vif TR-FRET 2.8%, HNF4A DNA FP 2.8, ALR inh 29.1 and Ecoli growth 0.715.
`Cc1ccc(Cl)cc1N1CCN(C(=O)CCS(=O)(=O)c2cccc3nonc23)CC1` gave HNF4A DNA FP 3.4, ALR inh -4.9 and Ecoli growth 0.666.
`COc1cccc(NC(=O)c2ccc(Cn3cc([N+](=O)[O-])cn3)o2)c1` gave HNF4A DNA FP -1.4, MLL AF4-AF9 inh 6.7, Ecoli rRNA inh 5.8, ALR inh -3.6, FGF22 binding inactive, Ecoli growth 0.652, Ecoli rRNA inh OD600 -1.9 and Ecoli rRNA inh RFP -4.8.
Cc1nnc(SCCn2c(N3CCN(C)CC3)nc3c2c(=O)[nH]c(=O)n3C)s1 was read as Vif TR-FRET -2.6%, HNF4A DNA FP 0.1, ALR inh -4.9 and Ecoli growth 0.683.
`CCOC(=O)CN1CCCc2nc(C)c(C)cc21` gave MLL AF4-AF9 inh -2.7, Ecoli rRNA inh 15.5, FGF22 binding inactive, Ecoli rRNA inh OD600 1.4 and Ecoli rRNA inh RFP 4.4.
`O=C(CCC(=O)OCC(=O)c1ccc(Cl)cc1)NC1CCCCC1` gave Vif TR-FRET -2.8%, HNF4A DNA FP 1.0, ALR inh 11.8 and Ecoli growth 0.739.
For O=C(CCSCCc1ccccn1)Nc1c(F)c(F)c(F)c(F)c1F the results were HNF4A DNA FP -1.7, ALR inh 0.2 and Ecoli growth 0.715.
For C[C@H]1Cn2cnc(C(=O)Nc3cccc(Cl)c3)c2C(=O)N1 the results were Vif TR-FRET 1.8%, HNF4A DNA FP 4.0, MLL AF4-AF9 inh -1.1, Ecoli rRNA inh 2.6, FGF22 binding inactive, Ecoli rRNA inh OD600 13.3 and Ecoli rRNA inh RFP 1.7.

Three entries from above, ordered by formula weight, ascending:
`COc1cccc(NC(=O)c2ccc(Cn3cc([N+](=O)[O-])cn3)o2)c1` gave HNF4A DNA FP -1.4, MLL AF4-AF9 inh 6.7, Ecoli rRNA inh 5.8, ALR inh -3.6, FGF22 binding inactive, Ecoli growth 0.652, Ecoli rRNA inh OD600 -1.9 and Ecoli rRNA inh RFP -4.8.
For O=C(CCSCCc1ccccn1)Nc1c(F)c(F)c(F)c(F)c1F the results were HNF4A DNA FP -1.7, ALR inh 0.2 and Ecoli growth 0.715.
COc1ccc(NC(=O)CSc2nnc(NC(=O)C3CC3)s2)cc1OC was read as HNF4A DNA FP 1.8, MLL AF4-AF9 inh -2.0, Ecoli rRNA inh 7.0, ALR inh -4.2, FGF22 binding inactive, Ecoli growth 0.698, Ecoli rRNA inh OD600 2.6 and Ecoli rRNA inh RFP -2.6.

(list continues)
Screening COCCN(CC(=O)Nc1cccc(C)c1C)C(=O)c1cc(-c2ccncc2)nc2ccccc12 returned Vif TR-FRET 0.2%, HNF4A DNA FP 2.2, MLL AF4-AF9 inh 3.7, Ecoli rRNA inh -10.4, ALR inh 1.6, FGF22 binding inactive, Ecoli growth 0.71, Ecoli rRNA inh OD600 4.3 and Ecoli rRNA inh RFP 9.2.
CC(=O)OC1CCC2(C)C(=CCC3C2CCC2(C)C3CC3ON=C(C)C32)C1 (configuration not stated) was read as Vif TR-FRET -6.3%, HNF4A DNA FP 1.9, MLL AF4-AF9 inh -3.3, Ecoli rRNA inh -0.2, FGF22 binding inactive, Ecoli growth 0.67, Ecoli rRNA inh OD600 -7.8 and Ecoli rRNA inh RFP 4.1.
`CCOC(=O)c1cnc2c(C(=O)OC)cccc2c1NCc1cccnc1` gave Vif TR-FRET -1.2%, HNF4A DNA FP 1.7, MLL AF4-AF9 inh 2.0, Ecoli rRNA inh -1.6, ALR inh -3.3, FGF22 binding inactive, Ecoli growth 0.722, Ecoli rRNA inh OD600 3.6 and Ecoli rRNA inh RFP 0.5.
For O=[N+]([O-])c1ccc(N2CCCCC2)s1 the results were Vif TR-FRET 10.2%, HNF4A DNA FP 25.3, MLL AF4-AF9 inh 2.2, Ecoli rRNA inh 11.0, ALR inh -3.0, FGF22 binding inactive, Ecoli growth 0.66, Ecoli rRNA inh OD600 10.9 and Ecoli rRNA inh RFP 3.4.
`Cc1cc(=O)oc(C)c1C(=O)Nc1ccccc1F` gave Vif TR-FRET -5.0%, HNF4A DNA FP -1.1, Ecoli rRNA inh 11.4, FGF22 binding inactive, Ecoli growth 0.638, Ecoli rRNA inh OD600 16.0 and Ecoli rRNA inh RFP 1.5.
Cc1c(Cc2ccccc2)c(NCCCO)n2c(nc3ccccc32)c1C#N was read as Vif TR-FRET inconclusive, HNF4A DNA FP -2.2, MLL AF4-AF9 inh -1.0, Ecoli rRNA inh -4.5, ALR inh -16.7, FGF22 binding inactive, Ecoli growth 0.658, Ecoli rRNA inh OD600 -0.4 and Ecoli rRNA inh RFP 1.8.
Screening COc1ccc(CCN2C(=O)CN(Cc3ccccc3)CC2=O)cc1OC returned Vif TR-FRET 3.6%, HNF4A DNA FP -1.6, MLL AF4-AF9 inh 1.5, ALR inh 11.7, FGF22 binding inactive and Ecoli growth 0.681.
For CC(O)(c1ccc(F)c(F)c1)c1nc(-c2cccc(C#N)c2)cs1 (configuration not stated) the results were HNF4A DNA FP -3.1, MLL AF4-AF9 inh -7.2, Ecoli rRNA inh -57.1, FGF22 binding inactive, Ecoli rRNA inh OD600 -78.7 and Ecoli rRNA inh RFP -20.4.
Screening CC(C)Cc1cc(C(=O)N(C)C2CCCN(Cc3ccccc3F)C2)n(C)n1 (configuration not stated) returned HNF4A DNA FP -4.3, MLL AF4-AF9 inh -0.1, Ecoli rRNA inh 1.4, ALR inh -0.6, FGF22 binding inactive, Ecoli growth 0.637, Ecoli rRNA inh OD600 1.6 and Ecoli rRNA inh RFP 1.3.
`Cc1ccc(C)c(CSc2nnc(-c3cccnc3)o2)c1` gave Vif TR-FRET 0.9%, HNF4A DNA FP 5.0, ALR inh 3.0 and Ecoli growth 0.672.
For Nc1c(N(Cc2ccco2)C(=O)COc2ccccc2F)c(=O)[nH]c(=O)n1Cc1ccccc1 the results were Vif TR-FRET -1.2%, HNF4A DNA FP -2.5, MLL AF4-AF9 inh -7.5, Ecoli rRNA inh 1.7, ALR inh -0.9, FGF22 binding inactive, Ecoli growth 0.654, Ecoli rRNA inh OD600 6.2 and Ecoli rRNA inh RFP -0.1.
Cc1ccc(C2=NOC(=O)/C2=C\c2ccccc2)cc1 was read as HNF4A DNA FP 3.3, MLL AF4-AF9 inh -0.7, ALR inh 70.3, FGF22 binding inactive and Ecoli growth 0.63.
`CC1C(=O)N2CCCc3cc(S(=O)(=O)Nc4ccccc4C(N)=O)cc1c32` (configuration not stated) gave HNF4A DNA FP -3.2, MLL AF4-AF9 inh 9.5, Ecoli rRNA inh 18.9, ALR inh -6.5, FGF22 binding inactive, Ecoli growth 0.583, Ecoli rRNA inh OD600 -4.8 and Ecoli rRNA inh RFP 1.4.
Screening Cc1ccc(S(=O)(=O)N(CC(=O)Nc2ccccc2C(=O)O)c2ccccc2)cc1 returned Vif TR-FRET 5.5%, HNF4A DNA FP 1.6, MLL AF4-AF9 inh -1.2, Ecoli rRNA inh -39.5, ALR inh 17.0, FGF22 binding inactive, Ecoli growth 0.677, Ecoli rRNA inh OD600 -45.1 and Ecoli rRNA inh RFP -6.3.
Screening CC(C)CC#Cc1ccc2c(c1)O[C@@H](CN(C)C(=O)C1CCOCC1)[C@H](C)CN([C@H](C)CO)S2(=O)=O returned MLL AF4-AF9 inh 1.2, Ecoli rRNA inh 2.5, FGF22 binding inactive, Ecoli rRNA inh OD600 -11.4 and Ecoli rRNA inh RFP -0.6.
For Cn1cccc1C1(C(F)(F)F)NCCNC1=O (configuration not stated) the results were Vif TR-FRET -1.6%, HNF4A DNA FP 1.8, ALR inh -6.2 and Ecoli growth 0.664.
For O=C(CCCn1cnc([N+](=O)[O-])n1)Nc1ccc(Cl)cc1Cl the results were Vif TR-FRET -8.9%, HNF4A DNA FP -2.9 and ALR inh -22.9.
Screening O=C1NC(=O)N(c2ccc(Cl)cc2)C(=O)/C1=C/c1ccc2c(c1)CCN2Cc1ccccc1Cl returned HNF4A DNA FP 3.7, MLL AF4-AF9 inh 2.7, Ecoli rRNA inh 12.2, FGF22 binding inactive, Ecoli growth 0.678, Ecoli rRNA inh OD600 4.9 and Ecoli rRNA inh RFP 0.9.
For O=c1ccc(NS(=O)(=O)c2ccccc2)cn1Cc1ccc(Cl)c(Cl)c1 the results were Vif TR-FRET 2.2%, HNF4A DNA FP 14.3, ALR inh -8.7 and Ecoli growth 0.703.
For CCOc1ccccc1C1CC(c2cccs2)=NN1S(C)(=O)=O (configuration not stated) the results were Vif TR-FRET 18.6%, HNF4A DNA FP 34.4, MLL AF4-AF9 inh -3.8, Ecoli rRNA inh -11.6, ALR inh -9.5, FGF22 binding inactive, Ecoli growth 0.684, Ecoli rRNA inh OD600 -12.6 and Ecoli rRNA inh RFP -3.9.
Screening C[C@@H]1CCCCO[C@@H](CN(C)Cc2ccc(C(=O)O)cc2)[C@@H](C)CN([C@@H](C)CO)C(=O)c2cc(NC(=O)Nc3cccc4ccccc34)ccc2O1 returned MLL AF4-AF9 inh 4.4, Ecoli rRNA inh 1.4, FGF22 binding inactive, Ecoli rRNA inh OD600 -2.1 and Ecoli rRNA inh RFP 0.6.
